CtBP-E1A blk – blocks the CtBP interaction with E1A; AlphaScreen GST-E1A/His-CtBP binding, 1536-well; active compounds read low; control for the full effect not named in the record; activity change, % (no concentration beside the values); hit rate 0.49% among 340,000; AID 651724; in the data active means activity change below about -65%; inconclusive means about -30% to -65%; inactive means above about -30%; also: % is scaled to controls: 0 for no effect and ±100 for the full control effect
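In 5 uL wells, 23 nL compound meets equimolar GST-E1A and His-CtBP (5X stock 125 nM each) for 2 h, 37 °C. Beads (5X, 50 ug/mL) then 1 h, 37 °C, dark.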
D2 agonist – activates the human D2 dopamine receptor; P14416; DiscoveRx PathHunter D2 beta-arrestin, luminescence, 90 min; 100% = 57 uM dopamine signal; activation, % (concentration not given with the values); hit rate 0.084% among 360,000; AID 624465; in the data active = activation above about 40%; inconclusive = about 15% to 40%; inactive = below about 15%; also: compound concentration not given in the record; the text of the record calls up to 30% inactive
Target sequence (P14416 whole entry, looked up): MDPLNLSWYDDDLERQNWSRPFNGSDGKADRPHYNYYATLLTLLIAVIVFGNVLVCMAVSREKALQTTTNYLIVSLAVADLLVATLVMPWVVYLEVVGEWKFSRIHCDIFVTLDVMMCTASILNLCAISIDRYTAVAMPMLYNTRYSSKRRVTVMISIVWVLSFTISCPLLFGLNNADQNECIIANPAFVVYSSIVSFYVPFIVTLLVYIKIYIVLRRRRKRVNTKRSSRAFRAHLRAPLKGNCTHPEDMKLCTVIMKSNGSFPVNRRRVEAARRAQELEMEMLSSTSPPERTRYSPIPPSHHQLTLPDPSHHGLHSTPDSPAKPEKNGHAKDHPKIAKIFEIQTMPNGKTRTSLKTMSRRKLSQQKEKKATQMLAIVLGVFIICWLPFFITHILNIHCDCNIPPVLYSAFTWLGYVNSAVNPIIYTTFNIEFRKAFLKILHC
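DiscoveRx PathHunter D2 beta-arrestin cells (2,100/well) attached overnight, then compound-stimulated 90 min at 37 C in HBSS/10 mM HEPES/0.1% Tween-20 buffer; beta-galactosidase complementation read by luminescence after 1 h at ambient temperature. Dopamine 57 uM final (EC100) as control.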
PINK1 expr mod – changes PINK1 expression; Potency, µM (highest dose often 76.6 µM), without a hit: at the highest dose activation (PINK1 increase), usual class: activators; AID 624263; PINK1 immunofluorescence, high-content cytometry, 24 h; hit rate 0.2% among 410,000; active = well fitted activation curve with a large enough effect; inconclusive = small, poorly fitted or top-dose-only effect; inactive = flat fitted curve, though single readings scatter; cell line not stated here;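 also: potency is read from the fitted curve at half-maximal effect; % of control where 0% means no effect; nearly all actives have a fitted effect of over 65% in size; a mitochondrial uncoupler was the plate control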
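Readout is PINK1 immunofluorescence, quantified alongside mitochondrial, cell and nuclear markers by laser-scanning microplate cytometry. Cells from a stable line were exposed to compound titrations (5 concentrations) for 24 hours, with CCCP controls.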
Six1-Eya2 inh – blocks human Six1 binding to Eya2. hit rate 0.56% among 360,000. activity change, % (concentration not given with the values). AlphaScreen GST-Six1/His-Eya2 binding, biochemical; active compounds read low; control for the full effect not named in the record. Q15475+O00167; in the data active = activity change below about -65%; inconclusive = about -30% to -65%; inactive = above about -30%; also: % is scaled to controls: 0 for no effect and ±100 for the full control effect
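Six1/Eya2 binding was read as AlphaScreen signal after compounds were pinned into GST-Six1 plus His-tagged Eya2 (5X stock 250/500 nM) in pH 8.0 Tris/NaCl/TCEP buffer, beads added, then incubated 1 h, 37 C, dark.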
TRPML1 ag – human mucolipin-1 channel agonism. Q9GZU1. TRPML1-expressing cells, Ca2+ dye fluorescence, FDSS; host cell line not named in the record; reference of the full effect not given here. activation, % (no concentration beside the values). hit rate 0.12% among 410,000; in the data active = activation above about 50%; inconclusive = about 30% to 50%; inactive = below about 30%; also: 0% is about no effect; the text of the record puts the active cut at 80%
Target sequence (Q9GZU1 whole entry, looked up): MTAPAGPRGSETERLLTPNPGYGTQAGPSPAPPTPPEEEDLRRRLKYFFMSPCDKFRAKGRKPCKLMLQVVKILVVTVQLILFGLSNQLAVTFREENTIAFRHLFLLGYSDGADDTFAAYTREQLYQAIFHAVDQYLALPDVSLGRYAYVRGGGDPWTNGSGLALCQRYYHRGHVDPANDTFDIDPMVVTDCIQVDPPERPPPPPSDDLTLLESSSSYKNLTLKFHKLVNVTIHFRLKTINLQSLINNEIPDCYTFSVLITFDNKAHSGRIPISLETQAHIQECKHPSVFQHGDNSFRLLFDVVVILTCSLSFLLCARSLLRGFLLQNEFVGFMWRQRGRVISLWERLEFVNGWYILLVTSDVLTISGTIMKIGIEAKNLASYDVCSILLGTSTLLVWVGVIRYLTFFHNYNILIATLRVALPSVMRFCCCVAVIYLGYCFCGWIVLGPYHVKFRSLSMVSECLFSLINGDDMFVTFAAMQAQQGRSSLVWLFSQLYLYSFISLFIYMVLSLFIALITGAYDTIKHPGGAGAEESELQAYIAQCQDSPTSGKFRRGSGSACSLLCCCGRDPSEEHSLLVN
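Calcium fluorescence on an FDSS kinetic reader gave the read-out. Tet-induced TRPML1-DL cells were plated overnight, dye-loaded (Ca8 with quencher, 45-90 min, room temperature, dark), then read 110 s after compound addition, and again 110 s after 4uM final 54-4 (EC80).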
TRPML1 inh – inhibitors of human TRPML1 channel | TRPML1-inducible cells, Ca2+ dye fluorescence, FDSS; active compounds read low; inhibition of EC80 agonist-evoked calcium signal | Q9GZU1 | activity change, negative = inhibition, % (no concentration beside the values) | hit rate 0.02% among 390,000 | AID 624415; in the data active means activity change below about -50%; inconclusive means about -30% to -50%; inactive means above about -30%;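 also: stimulus is agonist 54-4 at its EC80 concentration; % is scaled to controls: 0 for no effect and ±100 for the full control effect; compound concentration not given in the record; the text of the record puts the active cut at -80%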
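Tet-induced TRPML1-DL cells loaded with Ca8 no-wash calcium dye were read kinetically on FDSS. Compound addition was followed by EC80 agonist 54-4 (4 uM final); inhibition was read over 110 s.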
* hit, by the source's call; ? = inconclusive; . = not tested or not shown; & = joins results of further samples; [ ] = another dose, or the depositor's remark. Random draw from the library; overall some 1% were active at least once.

SMILES	CtBP-E1A blk	D2 agonist	PINK1 expr mod	Six1-Eya2 inh	TRPML1 ag	TRPML1 inh
CCOC(=O)CNS(=O)(=O)Cc1ccccc1	7	-1.3	0.4%	-1	0.4&0.7	11
CCCOc1ccc(N2C(=O)CC(SCCN)C2=O)cc1 (configuration not stated)	-1	-2.7	2.2%	0	-0.9	-17
O=C(CNC1=NCCC1)c1ccc(Cl)cc1	-7	3.6	2.2%	4	0.3	-6
O=C(OCc1cccc(C(F)(F)F)c1)c1ccc(-c2nnn(Cc3ccc(F)cc3)n2)cc1	.	.	2.9%	.	-0.8	-18
Cc1cccc(Nc2ncnc3c2cnn3C)c1	.	7.6	-0.6%	6	0.5	-4
CCN(CC)C(=O)c1cccc(-c2csc(C(C)(O)c3cccc(OC)c3)n2)c1 (configuration not stated)	-3	12	-0.3%	-6	-0.8	.
O=C(CSc1nncs1)Nc1ccc(Cl)cn1	-3	-1.0	-0.3%	14	0.2	-2
O=C(CC(=O)c1cc(Cl)ccc1O)c1ccccc1	11	-0.8	.	-5	0.3	5
c1ccc2c(c1)ncn2CCn1cnc2ccccc21	9	-3.7	-0.3%	13	1.4	-15
OC(COCc1ccc2c(c1)OCO2)CN1CCC(Cc2ccccc2)CC1 (configuration not stated)	4	-5.9	0.5%	6	0.4	-9
CC(=O)Nc1ccc(-c2nnn(CC(=O)c3ccc(F)cc3)n2)cc1Cl	-10	-1.2	1.7%	-15	1.0	19
COc1cccc(CCNC(=O)CCCC(=O)c2ccccc2)c1	.	0.2	-0.4%	0	2.3	-20
Cc1ccc(S(=O)(=O)N2CCC(=O)N([C@H](CO)Cc3ccccc3)CC2)cc1	3	.	1.9%	3	-0.2	.
O=C(Nc1nc(-c2ccccc2)cs1)C1COc2ccccc2O1 (configuration not stated)	-11	-2.2	4.4%	-2	1.5	-9
CCOc1ccc(NC(=O)CC2C(=O)N(c3ccccc3)C(=O)N2CCc2cccs2)cc1 (configuration not stated)	-4	-0.9	0.0%&-0.9%	5	1.1&2.7	3&-4
CC(OC(=O)CN(C)S(=O)(=O)c1ccc(Cl)cc1)C(=O)Nc1ccc(N2CCOCC2)cc1 (configuration not stated)	7	-0.6	-1.6%	-1	-0.4	4
O=C(NCCc1ccccn1)C1CCCN(S(=O)(=O)Cc2ccccc2)C1 (configuration not stated)	7	-0.9	1.4%	7	-0.1	7
CCN(C(=O)c1cccs1)c1nnc(-c2ccncc2)s1	2	1.3	-1.1%	2	3.3	14
COc1ccc2c(c1)CCCC21SC(NC(C)=O)=NN1C(C)=O (configuration not stated)	2	-20	-0.9%	-4	0.5	-24
Clc1ccccc1CNCc1ccncc1	6	-0.9	3.6%	3	-0.6	-6
Cc1ccc(NC2=C(Cl)C(=O)OC2OC(=O)c2ccccc2C)cc1 (configuration not stated)	5	1.0	1.7%	-2	2.6	27
O=c1cnnc(Nc2ccccc2F)[nH]1	-1	-1.8	0.1%	51	0.4	7
CCOc1ncccc1C(=O)OCc1ccc(Cl)cc1	4	3.1	4.9%	42	4.3	0
CCOC(=O)C1(Cc2cccc(OC)c2)CCN(Cc2cccc(O)c2)CC1	2	-3.1	-1.6%	-8	-0.5	-5
COC(=O)c1ccc2c(c1)N(C)S(=O)(=O)c1cnc(SCC(=O)C(C)(C)C)nc1-2	7	-0.9	-0.7%	2	-0.9	-18
SMILES	CtBP-E1A blk	D2 agonist	PINK1 expr mod	Six1-Eya2 inh	TRPML1 ag	TRPML1 inh
CCCCn1c(Cn2nc(C(=O)O)c3ccccc3c2=O)nc2cc(S(N)(=O)=O)ccc21	-4	3.4	0.6%	13	1.5	25
Cc1cc(C)c(S(=O)(=O)n2c([N+](=O)[O-])cnc2C)c(C)c1	6	2.1	2.9%	12	-0.4	-19
O=c1c(N2CCc3ccccc3C2)csc2ccc(Br)cc12	.	.	-0.2%	.	0.8	-22
Cc1c(C(=O)/C=C/N(C)C)nnn1-c1ccc(Cl)cc1Cl	-10	-2.5	-0.1%	?	-1.0	10
CCOC(=O)Cc1csc(NC(=S)NC(=O)CC(C)C)n1	2	-3.4	4.6%	8	-0.1	-3
C=C1CC(C(=O)N/N=C/c2ccc(O)cc2)C1	9	-2.7	4.5%	-6	0.7	-9
Cc1nn(-c2ccc(F)cc2)c(C)c1CN1CCN(CCc2ccccc2)C(CCO)C1 (configuration not stated)	.	-4.3	0.9%	-2	0.9	1
CC(C)C(NC(=O)c1c(F)cccc1F)C(=O)NCC(c1ccccc1)N(C)C (configuration not stated)	0	-6.3	5.5%	6	0.0	-4
CSc1ccc(S(=O)(=O)Nc2ccc(N3CCOCC3)c(Cl)c2)cc1	-1	2.9	8.7%[38.3 µM]	0	-0.8	18
COc1ccc(NC(=O)CCOc2ccc(C)cc2)cc1S(=O)(=O)N1CCCCC1	2	2.6	1.9%	-1	2.0	-5
CCOC(=O)c1ccc(NCc2ccc3c(c2)OCO3)cc1	-1	1.1	-1.8%	-4	2.0	6
Cc1cc(C)c(S(=O)(=O)NCCc2cc3ccc(C)c(C)c3[nH]c2=O)c(C)c1	-3	0.2	-0.4%&1.5%	-2	2.0&-0.4	-2&-12
O=C(NCCN1CCOCC1)C(=O)NCc1ccc2c(c1)OCO2	5	11	5.8%	5	0.8	12
O=C(CSc1nc(O)cc(=O)n1-c1ccccc1)Nc1nc2ccccc2s1	-2	-3.5	1.4%	-11	-0.1	0
CCc1nc2c(OCC(=O)c3ccc(F)cc3)cccn2c1N(C)C(=O)C(C)C	0	2.4	4.2%	-5	0.3	-9
N#CC1=C2SCCN2C(=O)C(C#N)C12CCCCC2 (configuration not stated)	-3	-0.5	-1.2%	2	-1.0	7
Cc1ccc(-c2nn(-c3ccc(F)cc3)cc2C(=O)NCC(c2cccs2)N2CCOCC2)cc1 (configuration not stated)	-5	-6.6	5.7%	1	0.3	11
COc1ccc(NC(=O)c2ccc(C(=O)Nc3ccc(OC)cc3OC)cc2)c(OC)c1	-6	-7.4	19%	9	0.7	-22
COc1cccc(NC(=O)c2ccc(-n3cccn3)nc2)c1	-11	-1.5	19%[38.3 µM]	-5	-0.5	5
CCNC(=O)C1CCCN(c2nn3cc(-c4ccc(C)cc4)nc3s2)C1 (configuration not stated)	.	.	-1.1%	.	1.8	34
CC(C)N(C(=O)[C@H]1C[C@H](CC(=O)NCCN2CCOCC2)C(=O)N2CCc3c([nH]c4ccc(Cl)cc34)[C@]12C)C(C)C	1	-3.8	0.4%	-2	0.4	-12
COc1cc2c(cc1NC(=O)c1cccc(F)c1)CCCC2	12	-1.6	6.9%	6	1.7	27
CCC(Sc1nnc(C)s1)C(=O)Nc1nccs1 (configuration not stated)	0	-3.6	-0.9%	0	-0.4	18
COc1ccccc1-c1c(C)oc2cc(OC(=O)c3ccco3)ccc2c1=O	6	-3.1	5.2%	-4	0.0	-4
COc1cccc(OCc2cc(C(=O)N3CCCC3c3ccccn3)no2)c1 (configuration not stated)	6	-2.3	-0.2%	1	1.8	0
SMILES	CtBP-E1A blk	D2 agonist	PINK1 expr mod	Six1-Eya2 inh	TRPML1 ag	TRPML1 inh
COc1ccccc1CNC(=O)C(=O)NCC1CCCN1S(=O)(=O)c1cccs1 (configuration not stated)	2	-4.4	-1.4%	-8	-0.6	-9
COc1ccc(NC(=O)CN(C)C(=O)CSCc2c(C)noc2C)cc1	9	-3.3	5.2%	7	0.1	-14
CCCc1nc(SCC(=O)NC2CC2)c2c(C)c(C)sc2n1	-26	2.9	12%	-1	0.5	-8
Cc1cc2nn(-c3ccc(F)cc3)nc2cc1NC(=O)c1cccc2c(Cl)cccc12	.	.	-1.9%	.	0.0	4
CCOC(=O)c1[nH]c2ccc(OC)cc2c1C	-2	-1.4	-1.8%	5	-0.2	-5
CCOc1ccc(-c2n[nH]c3c2C(c2cccs2)N(c2ccc(Br)cc2)C3=O)cc1 (configuration not stated)	.	.	?	.	2.6	-3
CCOC(=O)C1=C(C)NC(C)=C(C(=O)OCC)C1C(=O)OCC(=O)N1CCC(C)CC1	-14&1	-2.4&-3.6	1.6%&0.4%	10&-2	-0.2&-0.8	6&1
O=C(CNC(=O)c1sc2ccccc2c1Cl)NCc1cccnc1	0	-3.4	-2.5%	15	0.3	-3
O=C(NC1=NCCS1)c1cccc(F)c1	6	-3.6	-0.8%	3	1.1	-6
O=C(O)c1ccc(N2CCN(C(c3ccccc3)c3ccccc3)CC2)c([N+](=O)[O-])c1	0	-3.7	-1.0%	-12	-1.1	-4
CN(C)c1ccc(/C=C2\NC(=S)N(Cc3ccccc3)C2=O)cc1	-4	-5.2	?	-8	66*	-6
CC(Sc1nccn1C)C(=O)Nc1ccccc1 (configuration not stated)	3	-3.0	-0.2%	1	-0.4	1
CCn1c(=O)c2ccccc2n(Cc2ccc([N+](=O)[O-])cc2)c1=O	-9	5.5	-3.6%	1	2.0	9
COc1ccc(C(=O)COC(=O)CCNS(=O)(=O)c2ccc(NC(C)=O)cc2)c(OC)c1	-19	-0.1	2.9%	-3	0.5	1
COc1ccc(C(=O)Nc2ccc3c(c2)OCCO3)cc1[N+](=O)[O-]	1	0.3	16%	-7	-0.3	5
O=C(CCc1ccc(S(=O)(=O)N2CCOCC2)cc1)Nc1ccc2c(c1)OCCO2	.	-5.6	0.0%	2	-0.4	6
C/C(=N/OCO/N=C(\C)c1ccccc1)c1ccccc1	-2	9.9	5.4%	20	3.5	-3
O=C(Nc1ccc([N+](=O)[O-])cc1NC(=O)c1ccccc1)c1ccccc1	3	3.1	7.1%	2	-0.4	-15
C#CCOCCOCCOCCNc1nc(N2CCN(C(=O)CCCCCCCCCCNC(=O)[C@H](CCCCN)n3cc(C[C@@H](C)CC)nn3)CC2)nc(N2CCN(C(=O)CCCCCCCCCCNC(=O)[C@@H]([C@H](C)O)n3cc(C)nn3)CC2)n1	-10	4.3	-2.0%	-16	2.0	-15
Cc1cc(C)cc(NC(=O)N2CCC(N3CCCCC3)CC2)c1	.	.	-0.8%	.	1.4	-21
O=C(CCCn1c(=S)[nH]c2ccccc2c1=O)NC1CCCC1	-13	-1.5	.	-7	0.8	6
CCc1ccc(NC(=O)c2ccc(Cn3nc(N4CCN(c5ccccc5)CC4)ccc3=O)o2)cc1	.	.	-0.6%	.	0.6	-9

Single records (already shown). Order of screens: CtBP-E1A blk | D2 agonist | PINK1 expr mod | Six1-Eya2 inh | TRPML1 ag | TRPML1 inh
C#CCOCCOCCOCCNc1nc(N2CCN(C(=O)CCCCCCCCCCNC(=O)[C@H](CCCCN)n3cc(C[C@@H](C)CC)nn3)CC2)nc(N2CCN(C(=O)CCCCCCCCCCNC(=O)[C@@H]([C@H](C)O)n3cc(C)nn3)CC2)n1 in the list: -10 | 4.3 | -2.0% | -16 | 2.0 | -15
O=C(CNC(=O)c1sc2ccccc2c1Cl)NCc1cccnc1 in the list: 0 | -3.4 | -2.5% | 15 | 0.3 | -3
CCCc1nc(SCC(=O)NC2CC2)c2c(C)c(C)sc2n1 in the list: -26 | 2.9 | 12% | -1 | 0.5 | -8
COc1ccc(C(=O)Nc2ccc3c(c2)OCCO3)cc1[N+](=O)[O-] in the list: 1 | 0.3 | 16% | -7 | -0.3 | 5
